Bioassay records: PubChem BioAssay, several laboratories
Autofluor counter – flagged as autofluorescent in microsphere protease counterscreen; compound autofluorescence counterscreen, microsphere flow cytometry; stronger effect = higher value; fluorescence intensity (concentration not given with the values); hit rate 3.1% among 360,000; AID 624483;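 active = at least 3 SD above the mean of all compounds, about 16000 in these data; inconclusive = too few beads counted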;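 also: 100 nL of 1 mM stock went into each well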
Sa RN4220 lethal – S. aureus RN4220 growth inhibition; OD600, 16 h; inhibition, % (test concentration not listed); hit rate 0.33% among 330,000; AID 1259311;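 active = z-score of -3 or lower and OD600 up to 0.18 on both plates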;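 also: plate controls were untreated cells for no effect and reference antibiotic for full effect; stock transfer was 100 nL into about 80 µL; one replicate is shown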
ugtP null kill – kills S. aureus RN4220 lacking UgtP; S. aureus RN4220 ugtP deletion, OD600 growth, 16 h; some inactives read as strong as hits; growth inhibition, % (test concentration not listed); hit rate 0.54% among 330,000;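 active = z-score under -3 and OD600 up to 0.15 on both plates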;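 also: plate controls were untreated wells for no effect and antibiotic for full effect; wells of about 80 µL received 100 nL stock; the first replicate is given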
Mtb hypoxia inh – inhibitors of hypoxia-regulated fluorescent reporter in Mycobacterium tuberculosis. M. tuberculosis hypoxia-regulated fluorescent reporter, fluorescence. fluorescence inhibition, % (concentration not given with the values). hit rate 0.1% among 300,000;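 active = 35 to 45% if threefold the growth effect, above 45% if 1.5-fold the growth effect; inactive = the rest, general growth blockers included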;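 also: wells of about 50 µL received 100 nL stock; 0% = vehicle wells and 100% = reference inhibitor wells; whole bacteria with a GFP reporter of the hypoxia response; strong numbers were not always called active; many hits fall short of the cut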
PrP UTR inh – inhibition of PrP 5' UTR reporter expression; hit rate 0.35% among 340,000; AID 488862; cell-based PrP 5' UTR mRNA reporter, plate reader; inhibition, % (concentration not given with the values);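 active = every replicate at 50% or more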;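 also: 0 = median of the neutral control wells; tested in H4 reporter cells; numbers are from one replicate; inactives centre near -14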
BJeLR lethal – BJeLR cell viability loss; inhibition, % (no concentration beside the values); BJeLR (HRASV12) viability, CellTiter-Glo ATP luminescence, 48 h; reference of the scale not given here; AID 1554; hit rate 0.17% among 300,000;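 active = replicate mean above 50%; inconclusive = above 50% but judged a plate artefact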;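 also: 50 nL library stock added to about 25 µL; numbers are from one replicate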
Mtb hypoxia inh growth – further read-out of Mtb hypoxia inh, marked with its call; growth inhibition, %; measured here: M. tuberculosis growth (absorbance);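 0% = vehicle and 100% = reference antibiotic; read after six days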
An asterisk follows results filed as active; ? = inconclusive; . = not tested or not shown.

SMILES	Autofluor counter	Sa RN4220 lethal	ugtP null kill	Mtb hypoxia inh	Mtb hypoxia inh growth	PrP UTR inh	BJeLR lethal
COc1ccc(C2C(=O)c3ccccc3C2=O)c(OC)c1	9529	4.1	-7.4	7.1	2.6	-27.5	-5.4
O=C(CSc1nnc2ccccn12)Nc1nsc(-c2ccccc2)n1	2061	4.9	-5.6	6.1	13.5	-17.9	-1.0
O=C(COc1ccc(Br)cc1)NC1CC1	5196	-0.5	-1.8	3.7	0.0	-5.8	-7.3
Cn1ccnc1C1CCCCN1Cc1nc(Cc2ccccc2F)no1 (stereo unspecified)	4423	1.9	2.5	8.6	4.8	-16.9	0.4
CC1(C)Cc2cccc(OCC(=O)NC3CC3)c2O1	5498	4.9	2.2	1.2	4.9	-18.4	4.2
CC1CCCC(NC(=S)Nc2cccc(S(=O)(=O)N(C)C)c2)C1C (stereo unspecified)	4097	6.3	3.0	10.7	8.9	3.4	2.7
Cn1c(/C=C/c2cccc([N+](=O)[O-])c2)c([N+](=O)[O-])c(=O)n(C)c1=O	4146	5.5	6.4	14.3	3.7	-12.7	7.6
O=S(=O)(Cc1ccccc1)N=Nc1c(O)[nH]c2ccc(Br)cc12	3814	7.3	3.2	8.3	9.9	-11.9	-7.2
O=C(NCc1ccccn1)c1ccc(N2CCCC2)c([N+](=O)[O-])c1	2945	-2.9	-4.5	-3.3	-2.3	-16.0	-5.6
Cc1nn(-c2ccccc2)c(Cl)c1/C=C(\CC(=O)O)c1nc2ccccc2s1	2678	.	.	.	.	-20.4	-4.9
COc1ccc2[nH]c3c(c2c1)CCN1C(=O)C(CC(=O)NCCC2=CCCCC2)C[C@H](C(=O)N2CCOCC2)[C@@]31C (stereo partly specified)	3780	3.0	0.9	-13.1	-0.8	-8.4	.
COC(=O)c1cn(-c2ccccc2)nc1-c1ccc(OC)c(OC)c1	2878	15.6	-14.3	11.1	3.6	0.6	-4.9

An excerpt from above, showing only Sa RN4220 lethal, PrP UTR inh and Autofluor counter.
SMILES | Sa RN4220 lethal | PrP UTR inh | Autofluor counter
O=C(NCc1ccccn1)c1ccc(N2CCCC2)c([N+](=O)[O-])c1 | -2.9 | -16.0 | 2945
Cc1nn(-c2ccccc2)c(Cl)c1/C=C(\CC(=O)O)c1nc2ccccc2s1 | . | -20.4 | 2678
Cn1ccnc1C1CCCCN1Cc1nc(Cc2ccccc2F)no1 (stereo unspecified) | 1.9 | -16.9 | 4423

Additional entries:
SMILES	Autofluor counter	Sa RN4220 lethal	ugtP null kill	Mtb hypoxia inh	Mtb hypoxia inh growth	PrP UTR inh	BJeLR lethal
CCCCc1cc(=O)oc2cc(C)cc(OCC(=O)O)c12	21248*	3.5	-1.4	2.2	-0.3	-20.3	-3.5
COc1ccc(N2CCN(CCCNC(=O)C3CCCN(S(=O)(=O)c4c(C)n[nH]c4C)C3)CC2)cc1 (stereo unspecified)	3841	0.5	4.5	3.2	9.8	-29.3	0.7
NC(N)=NS(=O)(=O)c1ccc(NC(=S)NC(=O)c2sc3ccccc3c2Cl)cc1	8775	3.0	10.8	0.3	-2.1	-14.5	-5.6
CCn1cc(C(=O)N2CCN(c3cccc(C)c3C)CC2)c(=O)c2ccc(C)nc21	3272	0.8	7.7	8.8	5.2	-8.1	-4.5
O=C(CSc1nnc(CNC(=O)c2ccccc2F)o1)NCc1ccco1	5418	3.7	9.7	9.7	2.4	-2.4	-5.2
O=C(OCC1CC(c2ccccc2)=NO1)c1ccco1 (stereo unspecified)	.	2.5	2.0	-2.5	6.9	-26.9	-1.4
CN(CCOc1ccc(Cl)cc1)C(=O)C1CCN(C(=O)c2ccc(F)cc2)CC1	6298	0.2	15.3	-3.5	3.9	-19.2	2.8
COC(=O)C1=CN(Cc2ccc(OC)c(OC)c2)C=C(C(=O)OC)C1c1cccs1	4297	2.1	-2.8	-16.0	12.9	-11.2	-2.2
OC1(c2cccc(C(F)(F)F)c2)CCN(CCN2CCCCC2)CC1	5134	0.8	7.0	-1.8	2.3	-11.2	-3.2
C/C(CC(=O)Nc1ccc(C)c(Cl)c1)=N\NC(=O)c1cccc(O)c1	4125	.	.	.	.	-10.5	-5.7
Cc1nc2ccccc2c(=O)n1Cc1ccco1	3288	4.5	8.6	6.1	-1.2	.	-7.1
O=C1COc2ccccc2N1Cc1ccc(Cl)cc1	3981	2.7	4.6	10.7	5.1	-13.8	-5.6
CCCOc1ccc(C2Nc3cccc4cccc(c34)N2)cc1	3257	10.1	-5.6	-2.7	5.5	-53.4	-10.3
COc1ccc(OC)c(/C=C/C(=O)Nc2ccc(OC)nc2)c1	3400	5.6	2.1	6.9	1.5	-8.2	0.3
COc1ccc(/C=C/C(=O)OCC(=O)NC2CC2)c(OC)c1	3315	4.4	9.7	-0.6	2.0	-7.2	.
Cc1ccc(C)c(NS(=O)(=O)c2cc(C(=O)NCc3ccncc3)ccc2C)c1	4168	4.6	2.0	9.5	10.8	-17.5	-6.4
C#CCOc1ccccc1/C=C1/C(=O)ON=C1C	4287	5.8	5.7	-1.4	-1.5	-17.8	-5.2
COc1ccc(C(=O)Oc2cc(OC)cc(OC)c2C(C)=O)cc1	4118	2.3	7.8	11.4	12.1	-15.1	-5.7
Cc1ccc(NC(=O)CS(=O)(=O)c2cn(CC(=O)N3CCOCC3)c3ccccc23)cc1	4843	0.4	-4.1	0.7	3.1	2.0	-9.0
Cc1ccc(-n2c(=O)cc(N3CCc4ccccc4C3)[nH]c2=O)cc1	5390	3.0	-3.2	-12.7	-5.8	-31.9	-7.9
O=C(NCCc1c[nH]c2ccccc12)C(=O)c1c[nH]c2ccccc12	6340	-3.1	-14.9	-10.0	6.6	-16.5	-5.5
COc1ccc(C(=O)NN=C(C)CC(=O)Nc2ccc3c(c2)OCCO3)c(OC)c1	.	0.6	4.3	4.3	-10.8	.	.
O=C(NCC(=O)N(c1cccnc1)C(C(=O)NC1CCCC1)c1cccs1)c1cccs1 (stereo unspecified)	2150	0.2	14.1	-3.5	-2.4	-9.3	3.2
CCOC(=O)C1=C(C)N(c2nonc2NC(C)=O)C(N)=C(C#N)C1c1ccccc1F (stereo unspecified)	4212	0.7	2.3	.	.	-7.1	-5.5
COc1ccc(S(=O)(=O)NCc2cccnc2)c2ccccc12	5842	2.0	13.3	-5.0	1.6	-18.2	1.8
S=C(NC1CCCCC1)N1CCOCCOCCN(C(=S)NC2CCCCC2)CCOCC1	5032	2.8	14.1	5.9	-7.4	.	13.0
CCOC(=O)c1ccc(N2C(=O)CC(Sc3nc(O)c(CC)c(=O)[nH]3)C2=O)cc1 (stereo unspecified)	2712	6.7	1.5	.	.	-8.5	1.5
Cc1ccc(S(=O)(=O)N(C)C)cc1NC(=O)C1CCCN(C(=O)c2ccc(Cl)cc2)C1 (stereo unspecified)	4849	3.1	2.8	1.9	-7.9	-20.4	0.9
O=C(CN(C(=O)c1csnn1)c1cccc2c1CCCC2)NCc1ccccc1	6036	0.2	-2.4	10.9	-3.2	-7.3	-6.7
CC(=NNC(=O)C(N)=O)c1ccc(NC(=O)c2cccs2)cc1	.	4.2	2.6	10.5	0.5	.	.
O=C(N=c1nc2ccccn2s1)c1ccccc1	11568	0.1	-1.0	4.2	2.3	-86.0	27.5
CC(C)CCC(C(=O)O)C(C)CC(=O)Nc1ccn(-c2ccccc2)n1 (stereo unspecified)	4660	4.0	0.0	1.9	1.2	-19.5	4.7
COCCN(C(=O)COC(=O)CSc1ccccc1)c1c(N)n(Cc2ccccc2)c(=O)[nH]c1=O	?	0.1	12.0	4.4	0.0	-6.0	-5.1
C/C(=N/NC(=O)c1cc(-c2ccccc2)nc2c(Cl)cccc12)c1cccnc1	4424	.	.	.	.	-6.1	5.9
Cn1nc(-c2ccc(Cl)cc2)cc1NC(=O)Nc1ccccc1	6258	-10.3	-17.5	9.9	0.0	-41.7	0.1
O=C(Nc1cccc(-c2cccc(Cl)c2)c1)C1CCN(Cc2ccc(CO)o2)CC1	6082	-5.2	-5.0	5.4	4.4	-19.0	4.9
COc1ccc(/C=C(\NC(=O)c2ccccc2)C(=O)NC2CCS(=O)(=O)C2)cc1 (stereo unspecified)	5335	4.6	2.5	5.6	16.3	-5.5	5.8
c1ccc(-c2nnc(CN3CCCc4ccccc43)o2)cc1	3631	-1.8	-21.2	.	.	-18.5	0.7
N#Cc1nc(Cl)c(Cl)c(NN)c1Cl	4237	5.9	-2.0	1.1	1.6	-11.9	3.0
Cc1ccc(-n2c(CNc3ccc(F)cc3)nnc2SCC(=O)N2CCCC2)cc1	6986	-2.7	-6.0	4.1	-0.6	-12.2	-5.3
COc1ccc([N+](=O)[O-])cc1NC(=O)CC1SC(=Nc2cccc(C)c2C)N(N=C(C)c2ccc(C)cc2)C1=O (stereo unspecified)	.	0.2	-77.7	7.3	2.0	.	.
COC(=O)c1ccccc1NC(=S)N1CCOCC1	3162	0.0	-1.8	2.9	4.5	-11.9	0.9
Oc1ccc(Cl)cc1CNCC1CCCO1 (stereo unspecified)	20694*	2.4	-1.9	9.7	5.3	-21.5	-0.6
CCOC(=O)c1cnc(Nc2nc3ccccc3o2)nc1CSC(=S)N1CCCCC1	2098	4.4	0.1	14.0	-1.6	-14.4	-7.9
CC(=O)Nc1ccc(SCC(=O)c2cc(C)n(-c3ccccc3F)c2C)cc1	10452	4.8	-5.5	-2.0	3.8	67.9*	1.1
COc1cc2c(cc1OC)[C@@H](NC(=O)COc1ccccc1)[C@H](OCc1ccccc1)C2	3594	1.4	-1.7	-8.9	5.2	-14.7	.
CCN1C(=O)c2cccc3c(S(=O)(=O)Nc4ccccc4O)ccc1c23	4900	6.6	-10.9	7.5	0.6	-18.2	-1.0
COc1ccc(NS(=O)(=O)c2cc([N+](=O)[O-])ccc2NN=Cc2ccccc2OCC(=O)O)cc1	6856	-3.8	-5.2	0.6	-6.3	7.8	.
Cc1cc(C)cc(OCC(=O)Nc2ccc(-n3cnnn3)cc2)c1	6134	3.1	-6.0	3.7	1.1	-3.8	.
Cc1cc(C)nc(NC(=NCCc2c[nH]c3ccccc23)NC(=O)Nc2ccc(Cl)cc2)n1	2372	-6.9	-29.4	-1.7	-0.3	-13.5	-16.5
CC1CN(C(=S)Nc2cccc(Cl)c2)CC(C)O1 (stereo unspecified)	3348	-0.2	8.3	-1.4	9.0	-14.7	3.7
CC(=O)c1ccc(S(=O)(=O)Nc2ccc(-c3ccc4nncn4n3)cc2)cc1	?	6.6	2.7	-3.0	-3.4	-16.4	0.9
C[C@@H]1[C@@H](Sc2ccccc2)CC(=O)O[C@@H]1c1ccc(-c2ccccc2)cc1	2910	.	.	.	.	-16.8	6.0
COc1cccc(-c2n[nH]c3c2CCC3)c1	2426	-1.7	-5.5	-6.8	-12.5	-23.9	2.3
Cc1cc(N2CCCC2)nc2ccc(NC(=S)NCCCN3CCC(C)CC3)cc12	2955	8.7	-4.0	0.7	5.2	-8.9	1.6
COc1ccc(CNC(=O)[C@@H](NC(=O)C2CCN(S(=O)(=O)c3ccccc3)CC2)C(C)C)cc1	5960	3.4	13.9	5.6	6.2	-5.4	9.0
CN(CC(=O)Nc1cccc(F)c1)C(=O)COc1cccc2c1OC(C)(C)C2	5334	2.1	7.1	2.9	1.5	-13.6	4.9
CC1CCCCC1NC(=O)COC(=O)c1ccc(N(C)C)cc1 (stereo unspecified)	3830	1.1	0.9	20.5	-29.6	-13.4	-3.5
COc1cc(OC)c(C(=O)Nc2ccncc2)cc1OC	.	2.1	0.9	19.3	4.7	-8.4	-9.5
C#CCOCCOCCOCCNc1nc(N2CCN(C(=O)[C@H](Cc3cc4ccccc4[nH]3)n3cc([C@@H](N)C(C)CC)nn3)CC2)nc(N2CCN(C(=O)[C@H](CCCCN)n3cc([C@@H](N)CO)nn3)CC2)n1 (stereo partly specified)	.	-12.1	-2.3	12.7	8.5	.	-3.7
O=C1COc2ccccc2N1Cc1ccccc1Cl	9192	2.9	3.0	12.6	10.2	-14.6	6.3
